# TRPML1 inh = qHTS for Inhibitors of the Human Mucolipin Transient Receptor Potential 1 (TRPML1). Mucolipin-1 (Homo sapiens), Q9GZU1. 390,000 compounds, 0.02% hits. activity change, negative = inhibition, % (test concentration not listed). TRPML1-inducible cells, Ca2+ dye fluorescence, FDSS; stronger effect = lower value; inhibition of EC80 agonist-evoked calcium signal; in the data active means activity change below about -50%; inconclusive means about -30% to -50%; inactive means above about -30%;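 also: stimulus is agonist 54-4 at its EC80 concentration; % is scaled to controls: 0 for no effect and ±100 for the full control effect; compound concentration not given in the record; the text of the record puts the active cut at -80%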
#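 Calcium fluorescence in TRPML1-DL cells induced overnight with Tet: a 110 s read after compound pin addition, then a 110 s antagonist read after challenge with 54-4 at 4 uM final (EC80).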
# PINK1 expr mod = A Quantitative High throughput Screen to Identify Chemical Modulators of PINK1 Expression; PINK1 immunofluorescence, high-content cytometry, 24 h; Potency, µM (doses to about 76.6 µM), inactives show at the highest dose activation (PINK1 increase), usual class: activators; 410,000 compounds, 0.2% hits; AID 624263, 2012; active = well fitted activation curve with a large enough effect; inconclusive = small, poorly fitted or top-dose-only effect; inactive = flat fitted curve, though single readings scatter; cell line not stated here;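 also: potency is read from the fitted curve at half-maximal effect; % of control where 0% means no effect; nearly all actives have a fitted effect of over 65% in size; a mitochondrial uncoupler was the plate control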
#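 Fluorescence from anti-PINK1 antibody, together with nuclear and cell stains, was scanned on a laser-scanning cytometer. Before staining, stable-line cells were incubated 24 hours with compounds at 5 concentrations; primary antibody 12 h at 10 degrees C.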
# D2 ag = Beta-Arrestin HTS for Positive Allosteric Modulators of the Human D2 Dopamine Receptor: Agonists. 360,000 compounds, 0.084% hits. DiscoveRx PathHunter D2 beta-arrestin, luminescence, 90 min; 100% = 57 uM dopamine signal. AID 624465, 2012. activation, % (no concentration beside the values); in the data active = activation above about 40%; inconclusive = about 15% to 40%; inactive = below about 15%; also: compound concentration not given in the record; the text of the record calls up to 30% inactive
# Target sequence (P14416 whole entry, looked up): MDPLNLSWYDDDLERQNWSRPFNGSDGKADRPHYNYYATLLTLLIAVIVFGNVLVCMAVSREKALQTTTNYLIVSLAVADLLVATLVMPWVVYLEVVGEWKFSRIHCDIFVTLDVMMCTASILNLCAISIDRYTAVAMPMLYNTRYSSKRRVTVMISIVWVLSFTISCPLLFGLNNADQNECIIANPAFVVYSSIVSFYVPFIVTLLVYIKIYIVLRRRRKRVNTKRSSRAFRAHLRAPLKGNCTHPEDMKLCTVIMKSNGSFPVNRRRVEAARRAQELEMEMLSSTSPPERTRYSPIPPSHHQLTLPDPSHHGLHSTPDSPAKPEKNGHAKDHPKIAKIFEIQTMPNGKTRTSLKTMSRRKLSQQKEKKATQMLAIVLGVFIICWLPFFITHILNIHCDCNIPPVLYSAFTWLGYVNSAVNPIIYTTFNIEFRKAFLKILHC
#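 Agonist mode: compounds alone added to overnight-plated D2 PathHunter cells for 90 min at 37 C, with 57 uM final dopamine (EC100) defining full response. Beta-arrestin recruitment detected by chemiluminescent reagent, read after 1 h at ambient temperature.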
# Six1-Eya2 inh = qHTS Assay for Inhibitors of the Six1/Eya2 Interaction; Homeobox protein SIX1 (Homo sapiens) + Protein phosphatase EYA2 (Homo sapiens), …; AlphaScreen GST-Six1/His-Eya2 binding, biochemical; stronger effect = lower value; control for the full effect not named in the record; activity change, % (no concentration beside the values); 360,000 compounds, 0.56% hits; in the data active = activity change below about -65%; inconclusive = about -30% to -65%; inactive = above about -30%; also: % is scaled to controls: 0 for no effect and ±100 for the full control effect
#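 Compounds are tested against tagged Six1 and Eya2 proteins bridged by glutathione donor and nickel acceptor beads; after a one-hour incubation at 37 °C without light, AlphaScreen emission is recorded.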
# D2 PAM = Beta-Arrestin HTS for Positive Allosteric Modulators of the Human D2 Dopamine Receptor: Potentiators | DiscoveRx D2 beta-arrestin cells, luminescence, 90 min; 100% = 57 uM dopamine signal | potentiation, % (concentration not given with the values) | 360,000 compounds, 0.23% hits; active = potentiation of 50% or more; inconclusive = 30% to 50%; inactive = 30% or less;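 also: tested on top of an EC20 dose of dopamine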
#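 PathHunter D2 cells, attached overnight at 37 deg C, received compound in DMSO plus dopamine at EC20 (50 nM final) for 90 min at 37 deg C. Beta-arrestin recruitment was read as luminescence after 1 h with detection reagent at ambient temperature.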
# TRPML1 agonist = qHTS for Agonists of the Human Mucolipin Transient Receptor Potential 1 (TRPML1) | TRPML1-expressing cells, Ca2+ dye fluorescence, FDSS; host cell line not named in the record; reference of the full effect not given here | Mucolipin-1 (Homo sapiens), Q9GZU1 | activation, % (test concentration not listed) | 410,000 compounds, 0.12% hits; in the data active = activation above about 50%; inconclusive = about 30% to 50%; inactive = below about 30%; also: 0% is about no effect; the text of the record puts the active cut at 80%
#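 Cells: TRPML1-DL, 1X Tet inducer, ~16 h at 37 degrees C/5% CO2. Dye: ABD Ca8 no-wash + quencher, 45-90 min RT. Read: 10 s baseline, compound add, 110 s agonist phase; 54-4 EC80 (4uM final), 110 s antagonist phase.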
# The depositor's hits bear a star; ? = inconclusive; · = not tested or not shown; [ ] = remark or other dose. Not a hit list, and some 1% of all compounds hit somewhere here.
SMILES,TRPML1 inh,PINK1 expr mod,D2 ag,Six1-Eya2 inh,D2 PAM,TRPML1 agonist
Cc1nc(CS(=O)(=O)c2ccccc2)cc(N2CCOCC2)n1,-18,8.2%,-3.1,26,-10,-0.7
CCc1ccc(-c2nc(CS(=O)CC(=O)NCc3ccc4c(c3)OCO4)c(C)o2)cc1 (stereo unspecified),-3,-1.0%,-0.2,-1,-2,-0.5
C[C@H](CO)N1C[C@H](C)[C@H](CN(C)C)Oc2ccc(NS(=O)(=O)c3ccc(F)cc3)cc2CC1=O,-12,0.2%,-2.0,2,-9,-0.8
C[C@@H]1CN([C@@H](C)CO)C(=O)CCCn2nncc2CO[C@@H]1CN(C)S(=O)(=O)c1cn(C)cn1,1,1.6%,-9.2,2,1,0.2
O=c1cc(C(F)(F)F)c2sc(N3CCCCC3)nc2[nH]1,5,-1.5%,-3.6,-1,2,-0.7
CC(=O)c1sccc1NC(=O)CC(C)(C)CC(=O)O,10,0.7%,-2.3,7,-3,0.3
CCOC(=O)CN(C(=O)CSc1nnc(COc2ccc(OC)cc2)n1CC)c1ccccc1,2,-0.3%,2.1,1,-5,0.9
CCOc1ccc(CC(=O)Nc2c(C(=O)c3ccccc3)oc3ccc(OC)cc23)cc1OCC,-5,0.5%,·,·,·,-0.7
CN(C)NC(=S)Nc1ccc(S(=O)(=O)N2CCCCC2)cc1,14,-1.6%,-6.4,4,-7,0.7
N#CCCN(C(=O)COC(=O)c1cccc(S(=O)(=O)Nc2ccc([N+](=O)[O-])cc2)c1)c1ccccc1,3,-3.3%,-4.6,-11,-21,-0.4
CCOC(=O)C1CCN(C(=O)c2ccc3c(SCC(=O)O)c4c(nc3c2)CCCC4)CC1,12,0.7%,-3.7,1,-2,0.5
C=CCOc1ccc2nc(NC(=O)OC)[nH]c2c1,-9,9.8%,-3.5,-2,-6,-0.5
O=C(CCC(=O)N(CC(=O)NC1CCCCC1)Cc1ccc(F)cc1)Nc1nccs1,-3,0.6%,-1.5,17,-6,0.0
CC(=O)Nc1ccc(C(=O)OCC(=O)c2ccc(S(=O)(=O)N3CCCCC3)cc2)cc1,-24,1.5%,-3.3,-8,-5,0.6
CC1(C)Cc2c(C#N)c(N3CCN(C(=O)c4ccccc4)CC3)nc(Cc3ccccc3)c2CO1,-4,-2.1%,0.9,9,-13,0.5
Cc1nc2cc(NC(=O)CS(=O)(=O)c3ccc(F)cc3)ccc2s1,24,4.7%,5.2,-3,-13,-0.1
CCc1noc(C)c1C(=O)Nc1cc(Cl)ccc1-n1cncn1,4,-0.5%,-0.9,1,11,-1.0
Cc1cc2c(c(=O)n1Cc1ccccn1)C(C(C)C)C(C#N)=C(N)O2 (stereo unspecified),11,-0.3%,-1.3,5,-16,-0.7
Cc1ccccc1-c1cnc2c(c1)C(=O)N([C@H](C)CO)C[C@@H](C)[C@H](CN(C)C(=O)c1ccncc1)O2,·,0.1%,-0.3,-2,·,·
Cc1ccc(C(=O)COC(=O)CN2C(=O)C3CC=CCC3C2=O)cc1[N+](=O)[O-] (stereo unspecified),9,-0.5%,-13,7,-29,-0.6
COc1ccc2c(c1)[nH]c1c(=O)n(/N=C/C3C(C)C=C(C)CC3C)c(=O)[nH]c12 (stereo unspecified),-2,9.3%,-1.7,9,8,0.1
O=C1Cc2ccccc2N1c1c(Cl)cccc1Cl,39,-2.6%,0.0,-1,-2,1.6
Cc1cc2ccccc2c(=O)n1CC(=O)NCC(=O)N(C)Cc1ccccc1,-9,-3.0%,-4.0,0,-6,0.0
CCOc1ccccc1NC(=O)CSc1nnc(CNC(=O)c2cccs2)o1,12,-0.7%,-2.9,3,-5,-1.1
O=C(CSc1nc2c([nH]c3ccccc32)c(=O)n1-c1cccc(C(F)(F)F)c1)N1CCc2ccccc21,15,-4.8%,·,·,·,1.1

# 3 of these compounds, set out differently.
Compound	TRPML1 inh	PINK1 expr mod	D2 ag	Six1-Eya2 inh	D2 PAM	TRPML1 agonist
Cc1cc2ccccc2c(=O)n1CC(=O)NCC(=O)N(C)Cc1ccccc1	-9	-3.0%	-4.0	0	-6	0.0
CCOc1ccccc1NC(=O)CSc1nnc(CNC(=O)c2cccs2)o1	12	-0.7%	-2.9	3	-5	-1.1
O=C(CSc1nc2c([nH]c3ccccc32)c(=O)n1-c1cccc(C(F)(F)F)c1)N1CCc2ccccc21	15	-4.8%	·	·	·	1.1

# More structures follow:
SMILES,TRPML1 inh,PINK1 expr mod,D2 ag,Six1-Eya2 inh,D2 PAM,TRPML1 agonist
Cn1c(=O)c2cc(S(=O)(=O)NCCC(=O)NC3CCCCCC3)ccc2n(C)c1=O,14,·,-1.7,-28,3,0.5
CCCCNS(=O)(=O)c1cccc(NC(=O)[C@@H]2O[C@H](CO)[C@@H](O)[C@H]2O)c1,·,-0.4%,5.5,1,-1,-0.8
CC(Oc1ccc(Cl)cc1)C(=O)OCC(=O)Nc1ncc(Cl)cc1Cl (stereo unspecified),-3,0.8%,-5.7,0,-32,7.2
Cc1ccc2scc(CN3CCCC3)c2c1,6,2.9%,2.5,-3,-16,0.7
CCOc1ccccc1C(=O)Nc1cc2c(cc1N1CCOCC1)n(C)c(=O)n2C,-7,-1.6%,·,·,·,1.2
CCOc1ccccc1CNC(=O)c1cc2c(=O)n(Cc3ccccc3)ccc2nc1C,20,2.9%,·,·,·,3.1
Cc1cc(N2CCCCC2)nc2ccc(NC(=O)/C=C/c3ccc(OC(C)C)cc3)cc12,7,0.7%,·,·,·,0.7
O=C(c1ccccc1)N1CCN(CC#CC2(O)CCCCC2)CC1,-8,3.0%[38.3 µM],-0.4,-2,-29,-0.3
N#Cc1c(N)n(-c2cccc(Cl)c2)c2nc3ccccc3nc12,-15,-5.3%,·,·,·,0.5
Cc1ccccc1CSc1nc(-c2cccc(F)c2)nc2c1Cc1c(CO)cnc(C)c1O2,-14,-1.1%,·,·,·,0.6
CN(C)/N=C/c1ccc(Sc2ccc([N+](=O)[O-])cc2[N+](=O)[O-])o1,5,8.2%,-8.7,-15,-23,0.6
COC(=O)N/N=C/c1c(C)nn(-c2cccc(Cl)c2)c1Cl,2,7.4%,-2.1,0,-6,-0.3
COCCNc1ccc([N+](=O)[O-])cc1C(=O)Nc1cccc(C)n1,26,-1.3%,-3.3,-7,-12,1.8
CS(=O)(=O)N(CC(=O)N1CCN(c2ccc(F)cc2)CC1)c1ccc(F)c(Cl)c1,30,0.2%[38.3 µM],-4.1,-12,-9,0.4
O=C(Cc1ccccc1)NCC(=O)OC(c1ccccc1)c1ccccc1,22,2.3%,-3.0,4,-6,3.9
Cc1nn(CCCC(=O)Nc2cccnc2)c(C)c1[N+](=O)[O-],-6,3.0%,-1.3,-4,-1,-0.9
CN(CCOc1ccccc1)C(=O)c1cc(S(=O)(=O)N2CCOCC2)ccc1Cl,0,-1.7%,1.7,4,3,0.1
Cc1cccc(C)c1OCCCCn1cnc2ccccc2c1=O,2,5.9%[38.3 µM],-4.0,5,3,1.5
COc1ccc(N2CC(NC(=O)c3cccc4ccccc34)CC2=O)cc1OC (stereo unspecified),-19,-1.2%,4.3,-1,-3,0.6
O=C(C(c1ccccc1)C(O)c1ccccc1)N1CCOCC1 (stereo unspecified),15,-2.3%,-3.8,11,-3,-0.1
O=C(Cn1cc(S(=O)(=O)Cc2cccc(Cl)c2)c2ccccc21)Nc1ccc(F)c(Cl)c1,-3,2.2%,·,·,·,-0.2
Cc1cc(C)c(C(=O)O)c(CC(C)(C)C(=O)O)c1,26,-0.6%,1.0,8,-8,0.2
CCOc1ncccc1C(=O)Nc1ccc(F)c(Cl)c1,-6,-0.5%,-4.4,-1,0,1.4
CC(=O)N(/C=C1\SC(=S)N(c2ccccc2)C1=O)c1ccccc1,8,4.7%,-12,-7,-10,0.8
COc1ccc(S(=O)(=O)N2CCN(Cc3ccc4c(c3)OCO4)CC2)cc1C,-10,-2.0%,·,·,·,1.2
CCc1ccc(NC2=CC(=O)C(=O)c3ccccc32)cc1,-12,-1.8%,12,-7,?,-0.1
CCCCc1nn2c(=O)cc(COC(=O)c3ccccc3C)nc2s1,-17,0.5%,·,·,·,-0.2

# Results in Six1-Eya2 inh, TRPML1 inh and PINK1 expr mod, for 7 of the compounds above:
Compound | Six1-Eya2 inh | TRPML1 inh | PINK1 expr mod
N#Cc1c(N)n(-c2cccc(Cl)c2)c2nc3ccccc3nc12 | · | -15 | -5.3%
Cc1ccccc1CSc1nc(-c2cccc(F)c2)nc2c1Cc1c(CO)cnc(C)c1O2 | · | -14 | -1.1%
CN(C)/N=C/c1ccc(Sc2ccc([N+](=O)[O-])cc2[N+](=O)[O-])o1 | -15 | 5 | 8.2%
COC(=O)N/N=C/c1c(C)nn(-c2cccc(Cl)c2)c1Cl | 0 | 2 | 7.4%
COCCNc1ccc([N+](=O)[O-])cc1C(=O)Nc1cccc(C)n1 | -7 | 26 | -1.3%
CS(=O)(=O)N(CC(=O)N1CCN(c2ccc(F)cc2)CC1)c1ccc(F)c(Cl)c1 | -12 | 30 | 0.2%[38.3 µM]
O=C(Cc1ccccc1)NCC(=O)OC(c1ccccc1)c1ccccc1 | 4 | 22 | 2.3%

# Bioassay records: PubChem, National Center for Advancing Translational Sciences (NCATS)
